Bioassay records (PubChem)
Rango complex inh = inhibitors of Rango-importin beta complex formation | Potency, µM (top dose mostly 92.2 µM), for inactives: at the top dose inhibition of complex formation | 340,000 tested, 0.031% active | Q14974 | Rango CFP/YFP FRET sensor + importin beta, 45 min; active = rising FRET ratio curve, often small or poorly fitted; inconclusive = mostly compound fluorescence or quenching in the first reads; inactive = flat curves in all reads;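 further: potency means the concentration at half of the fitted maximal effect; 0% = DMSO wells and 100% = buffer wells lacking importin beta; nearly all actives have a fitted effect of over 15% in size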
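Inhibition scored from the CFP 486 nm/YFP 530 nm FRET ratio 45 min after adding 0.125 microM importin beta to 50 nM Rango biosensor preincubated 5 min with compound (room temperature, PBS with DTT, Tween-20, BSA). No-importin wells as positive control.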
miR-21 FLuc = raises the signal of a miR-21 reporter; HeLa miR-21 FLuc reporter, luciferase, 48 h; Potency, µM (titrated, usually from 38.3 µM), without a hit: at the highest dose reporter change, positive = more light; 340,000 tested, under 10 active; AID 2288; active = well fitted rising curve with a large enough effect; inconclusive = small, poorly fitted or top-dose-only effect; inactive = no such curve, though single readings can be large or run the other way;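 further: % of control where 0% means no effect; miR-21 action dims this reporter so a rising signal means less miR-21 action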
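HeLa miR-21-FLuc reporter line, endogenous miR-21; 2000 cells/well in DMEM/10% FBS; compound titration up to ~40uM final, 48 h, 37 degree Celsius; luciferase detection reagent, 15 min lysis, CCD luminescence.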
GLA inh pH 4.5 = blocks human alpha-galactosidase A at pH 4.5; P06280; 230,000 tested, under 10 active; AID 1467; purified enzyme, 4-MU-alpha-Gal fluorescence, pH 4.5; activity change, negative = inhibition, % at 105 µM; inconclusive = small, poorly fitted or top-dose-only inhibition, or a rising curve; inactive = flat fitted curve, though single readings scatter; no compound was filed as active;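 further: 0% = full activity with enzyme and -100% = basal without enzyme; dose as in the result columns while the protocol names 77 µM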
Target sequence (P06280 whole entry, looked up): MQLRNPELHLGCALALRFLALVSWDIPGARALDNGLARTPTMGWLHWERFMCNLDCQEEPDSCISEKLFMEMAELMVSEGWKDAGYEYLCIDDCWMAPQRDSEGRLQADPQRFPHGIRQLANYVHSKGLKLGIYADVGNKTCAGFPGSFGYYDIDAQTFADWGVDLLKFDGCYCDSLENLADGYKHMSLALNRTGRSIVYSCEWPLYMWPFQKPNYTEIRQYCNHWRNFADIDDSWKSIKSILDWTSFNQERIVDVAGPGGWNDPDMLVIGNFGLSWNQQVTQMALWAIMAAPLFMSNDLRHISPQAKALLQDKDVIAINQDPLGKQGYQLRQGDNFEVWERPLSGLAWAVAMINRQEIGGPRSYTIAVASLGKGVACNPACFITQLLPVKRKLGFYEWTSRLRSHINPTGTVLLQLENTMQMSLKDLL
Rango dissoc inh = inhibitors of RanGTP-induced Rango-importin beta complex dissociation. O95149+P62826. Biochemical FRET Rango-importin beta, RanGTP-induced dissociation. Potency, µM (highest dose often 46.1 µM), for the others: at the highest dose activity change, negative = inhibition. 340,000 tested, 0.071% active. AID 540253; active means falling FRET ratio curve, often poorly fitted, with flat reads before Ran was added; inconclusive means other falling curves, or compound fluorescence or quenching; inactive means flat or rising ratio curve;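 further: potency means the concentration at half of the fitted maximal effect; % of control where 0% means no effect; nearly all actives have a fitted effect of over 45% in size; -100% = wells without RanGTP and RCC1; the record marks most hits as doubtful in a second field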
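Quantitative HTS using a FRET biosensor: 0.1 uM Rango, 0.25 uM importin beta, 0.6 uM Ran, 2 mM GTP, 0.2 uM RCC1 final, PBS with DTT, Tween-20 and BSA. Post-read taken 45 min after Ran addition.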
The depositor's hits bear a star; ? = inconclusive; nt = no result given; [ ] = dose if it differs, or a comment. This is a subset; the hit share may differ from the screen's.

#1 COc1cc(/C=N\NC(=O)c2ccc(C)nc2)ccc1OC(=O)c1ccco1
#2 Cc1ccc(NC(=O)C2CCN(S(=O)(=O)c3ccccc3)CC2)cc1
#3 CCOc1cc(C2NC(=O)NC(C)=C2C(=O)OC(C)CC)cc(Br)c1O (stereo unspecified)
#4 CC1CN(c2ccc([N+](=O)[O-])cc2F)CCN1C(=O)c1ccco1 (stereo unspecified)
#5 CC1(C)OC(=O)C(=CNc2ncccn2)C(=O)O1
#6 COn1c(SCc2ccccc2)nc2ccccc2c1=O
#7 Cc1cc(NC(=O)CSc2nc(C(C)(C)C)nc3ccccc23)no1
#8 Cc1cccc(N2C(=O)CC(n3ccnc3)C2=O)c1C (stereo unspecified)

Compound	1	2	3	4	5	6	7	8
Rango complex inh	2.9%	0.4%	-1.3%	2.7%	?	4.3%	-3.8%	-4.5%
miR-21 FLuc	-6%	4%	-10%	22%	-5%	-16%	-3%	1%
GLA inh pH 4.5	-12	-1	11	nt	-28	-11	4	3[21.1 µM]
Rango dissoc inh	11%	11%	16%	-2%	-13%	-7%	?	10%

#9 COCCNc1cc(NCCOC)c([N+](=O)[O-])cc1[N+](=O)[O-]
#10 O=C(Nc1cccc(-c2nc3cccnc3s2)c1)c1cccnc1Cl
#11 CCc1ccc(NC(=O)c2ccc3c(c2)C(=O)N(CCOC)C3Nc2ccc(CC)cc2)cc1 (stereo unspecified)
#12 CCN1CCN(CCCNC(=O)C2CCCN(c3nnc(-n4cccc4)s3)C2)CC1 (stereo unspecified)
#13 CN(CCNC(=O)Cn1c(=O)sc2ccccc21)Cc1ccccc1
#14 OC[C@@H]1[C@@H](c2ccc(F)cc2)C(c2cccc(Cl)c2)=NN1c1ccccc1
#15 Cc1ccccc1NC(=O)CSc1cn[nH]n1
#16 CCOc1ccc(N(Cc2cc3ccc(C)cc3[nH]c2=O)S(C)(=O)=O)cc1

Compound	9	10	11	12	13	14	15	16
Rango complex inh	0.5%	3.2%	-3.8%	?	0.3%	?	-4.1%	-0.6%
miR-21 FLuc	-4%	5%	-37%	-2%	-12%	nt	0%	-2%
GLA inh pH 4.5	-1	6	-2	-1	2	26	nt	2
Rango dissoc inh	2%	0%	-11%	-1%	15%	?	15%	8%

#17 CC(C)CN1C(=O)C(=O)N(CC(=O)c2ccc3c(c2)CCCC3)C1=O
#18 CN(C)S(=O)(=O)c1ccc(NC(=S)NC(=O)c2cccs2)cc1
#19 Cc1c(C(=O)Nc2nccs2)oc2ccc(F)cc12
#20 Cc1ccccc1NC(=O)N1CCCC1C(=O)NCc1ccccc1 (stereo unspecified)
#21 N/C(=N\c1nc(CSc2nc3ccccc3s2)cc(=O)[nH]1)Nc1ccc(F)cc1
#22 CCOc1ccc(N(C)S(=O)(=O)c2ccc(C)c(C(=O)NCCc3ccc(OC)cc3)c2)cc1
#23 Fc1ccc(-c2noc(C3CCN(Cc4cccnc4)CC3)n2)cc1
#24 O=C(CS(=O)c1cccc(C(F)(F)F)c1)Nc1ccccc1Cl (stereo unspecified)

Compound	17	18	19	20	21	22	23	24
Rango complex inh	2.1%	2.7%	5.7%	-0.2%	-2.5%	-0.5%	4.0%	1.9%
miR-21 FLuc	nt	-15%	nt	1%	-3%	nt	-2%	1%
GLA inh pH 4.5	nt	-29	nt	nt	4	nt	-5	-17
Rango dissoc inh	-2%	0%	36%	1%	16%	-6%	-1%	1%

#25 CC(C(=O)Nc1ccc(F)cc1Cl)N1CCN(S(=O)(=O)c2cccs2)CC1 (stereo unspecified)
#26 CCOC(=O)C1=CN(CC)S(=O)(=O)NC1c1cccc(OC)c1 (stereo unspecified)
#27 COc1cc(/C=N/N(C)C)ccc1OC(=O)c1cccs1
#28 CCCC(=O)Nc1ccc(C(=O)NCc2ccccn2)cc1
#29 Cc1nc(N/N=C/c2ccc(Br)cc2)cc(N2CCOCC2)n1
#30 COC(=O)c1ccc2c(c1C(=O)OC)CN(S(=O)(=O)C(C)(C)C)[C@@H]2CCO
#31 CN1CCN(CCOCCOc2ccc(Br)cc2Cl)CC1
#32 Cc1nc(SCCC(=O)O)c2cc(-c3ccccc3)sc2n1

Compound	25	26	27	28	29	30	31	32
Rango complex inh	-0.7%	-0.9%	-0.5%	-2.2%	5.8%	3.5%	3.4%	-0.3%
miR-21 FLuc	nt	nt	-2%	0%	13%	nt	1%	27%
GLA inh pH 4.5	nt	nt	-10	2	nt	nt	nt	nt
Rango dissoc inh	-3%	15%	5%	11%	-9%	0%	5%	-12%

#33 O=C(NCc1cccc(F)c1)C1CCC(=O)N(CCCN2CCOCC2)C1 (stereo unspecified)
#34 CC(Nn1cnnc1)c1cc(Cl)ccc1O (stereo unspecified)
#35 O=C(N/N=C\c1cccc(Cl)c1)c1ccc(Cn2cccn2)o1
#36 COc1ccc2[nH]c(C)c(CCNC(=S)Nc3ccc(F)cc3)c2c1
#37 Cc1ccc(-n2c(SCC(=O)Nc3ccc(Cl)cc3)nc(O)cc2=O)cc1
#38 O=c1c2ccccc2nc2c3ccccc3c(NCc3cccnc3)nn12
#39 Cc1nc2ccccc2cc1C(=O)N/N=C/c1ccco1
#40 O=C(Nc1ccc(Cl)cc1)c1ccc(-n2cncn2)c([N+](=O)[O-])c1

Compound	33	34	35	36	37	38	39	40
Rango complex inh	-3.6%	1.4%	-1.7%	0.4%	1.3%	0.5%	2.8%	1.8%
miR-21 FLuc	-4%	3%	-9%	14%	2%	0%	-5%	11%
GLA inh pH 4.5	nt	-1	-1	1	nt	13	1	-3
Rango dissoc inh	10%	-5%	4%	19%	-6%	-20%	13%	-6%

#41 O=C1C[C@@H]2CCN3C(=O)CCC[C@@H]([C@H]23)[C@H]1Cc1ccccc1
#42 CC(=O)O/N=C/c1c(NCc2ccccc2)nc2c(C)cccn2c1=O
#43 Cc1cc(C)c(S(=O)(=O)N2CCOCC2)cc1C
#44 Cn1c(N)c(C(=O)COC(=O)c2ccccc2NCc2ccco2)c(=O)n(C)c1=O
#45 CC(C)C(C(=O)Nc1ccc2c(c1)OCCO2)N1C(=O)c2ccccc2C1=O (stereo unspecified)
#46 O=C(Cn1ncc2c(=O)oc3ccccc3c21)N1CCCc2ccccc21
#47 Cc1cccc(C(O)(C(=O)NNc2ccc3ccccc3n2)c2cccc(C)c2)c1
#48 CCOc1cc2[nH]c(=O)n(CCCN3CCCC3=O)c(=O)c2cc1OCC

Compound	41	42	43	44	45	46	47	48
Rango complex inh	-0.2%	0.6%	3.6%	-2.9%	-0.6%	?	1.5%	-1.1%
miR-21 FLuc	nt	-24%	0%	2%	-4%	-3%	13%	-9%
GLA inh pH 4.5	-7	-3	7	7	6	9	2	-5
Rango dissoc inh	-1%	-4%	4%	3%	-6%	-6%	25%	8%

#49 COc1cc2[nH]c(=S)nc(NC3CCCCCC3)c2cc1OC
#50 Cc1cc(NC(=O)c2ccc(S(=O)(=O)N3CCOCC3)cc2)no1
#51 COc1cc(-c2cc(N)n(S(=O)(=O)c3ccccc3)n2)cc(OC)c1OC
#52 CC(Oc1cccc2ccccc12)C(=O)N/N=C/c1cccnc1 (stereo unspecified)
#53 COc1cccc(OCC(O)CN2CCC(CN3C(=O)c4cccc5cccc(c45)C3=O)CC2)c1 (stereo unspecified)
#54 CCC(=O)N=c1n(C)c2ccccc2n1CCOc1ccccc1
#55 CCN(CC)Cc1c(C(=O)N/N=C/c2ccc(C)o2)nnn1-c1nonc1N
#56 O=C(CN1CCN(Cc2ccc(F)cc2)C1=O)NC1CCCC1

Compound	49	50	51	52	53	54	55	56
Rango complex inh	0.0%	1.2%	1.1%	-0.4%	4.0%	-1.3%	1.8%	1.2%
miR-21 FLuc	-20%	4%	13%	3%	20%	-20%	-1%	5%
GLA inh pH 4.5	12[21.1 µM]	6	-6	nt	-2	6	nt	-1
Rango dissoc inh	5%	-9%	-11%	15%	12%	31%	?	3%

#57 CC(=O)c1c(COC(=O)c2ccc(Cl)cc2)nc2ccccc2[n+]1[O-]
#58 Cc1cc(C)n2nc(SCC(=O)N3CCCC(C)C3)nc2n1 (stereo unspecified)
#59 O=C(CN1C(=O)C2CC=CCC2C1=O)Nc1ccc(OC(F)(F)F)cc1 (stereo unspecified)
#60 O=C(O)CCNc1cc2ccccc2cc1C(=O)O
#61 O=C(Nc1ccc(Cl)cc1)N1CCc2ccccc2C1
#62 O=C(OCc1ccc(Cl)cc1)c1cccnc1Cl
#63 NC(=O)COC(=O)CSc1cccc2cccc(Cl)c12
#64 Cc1ccc(S(=O)(=O)CCC(=O)Nc2ccc3c(c2)OCO3)cc1

Compound	57	58	59	60	61	62	63	64
Rango complex inh	3.3%	1.8%	-0.8%	?	-0.3%	-3.8%	1.3%	0.5%
miR-21 FLuc	-1%	nt	nt	-5%	-3%	2%	2%	1%
GLA inh pH 4.5	3	nt	nt	-1	2	9	-6	-1
Rango dissoc inh	-4%	9%	-5%	?	6%	-11%	3%	3%

Four entries out of the list above, sorted by the number in Rango complex inh, lowest first.
#59 O=C(CN1C(=O)C2CC=CCC2C1=O)Nc1ccc(OC(F)(F)F)cc1 (stereo unspecified)
#61 O=C(Nc1ccc(Cl)cc1)N1CCc2ccccc2C1
#64 Cc1ccc(S(=O)(=O)CCC(=O)Nc2ccc3c(c2)OCO3)cc1
#57 CC(=O)c1c(COC(=O)c2ccc(Cl)cc2)nc2ccccc2[n+]1[O-]

Compound	59	61	64	57
Rango complex inh	-0.8%	-0.3%	0.5%	3.3%
miR-21 FLuc	nt	-3%	1%	-1%
GLA inh pH 4.5	nt	2	-1	3
Rango dissoc inh	-5%	6%	3%	-4%

The main list resumes; the three compounds before the break are reprinted first.
#62 O=C(OCc1ccc(Cl)cc1)c1cccnc1Cl
#63 NC(=O)COC(=O)CSc1cccc2cccc(Cl)c12
#64 Cc1ccc(S(=O)(=O)CCC(=O)Nc2ccc3c(c2)OCO3)cc1
#65 CCCCC(=O)Nc1ccc(S(=O)(=O)N2CCCCC2c2cccnc2)cc1 (stereo unspecified)
#66 CC(C)N(Cc1ccccc1)C(=O)CC(=O)N(Cc1ccccc1)C(C)C
#67 CCc1ccc(CNC(=O)CCS(=O)(=O)Cc2ccc(C)cc2)cc1
#68 Cc1c(/C(O)=C2/C(=O)C(=O)N(Cc3cccnc3)C2c2cccs2)cnn1-c1ccccc1 (stereo unspecified)
#69 O=C(CN(C(=O)CNC(=O)c1ccco1)c1ccc(F)c(Cl)c1)NC1CCCCC1
#70 O=C(Nc1cc(C(F)(F)F)ccc1N1CCOCC1)c1cncc(Br)c1
#71 Cc1onc(-c2ccccc2Cl)c1C(=O)Oc1cccc2cccnc12
#72 Cc1ccc(C)c(N2CCN(C(=O)c3csc(C)c3C)CC2)c1

Compound	62	63	64	65	66	67	68	69	70	71	72
Rango complex inh	-3.8%	1.3%	0.5%	-0.9%	-2.2%	-3.5%	0.3%	0.1%	-0.4%	-2.3%	-0.2%
miR-21 FLuc	2%	2%	1%	-2%	8%	-1%	-75%	0%	-5%	1%	1%
GLA inh pH 4.5	9	-6	-1	nt	nt	nt	-14	nt	-14	10	-22
Rango dissoc inh	-11%	3%	3%	-18%	-1%	3%	-14%	1%	0%	-1%	4%

#73 C=CS(=O)(=O)N(Cc1ccccc1Br)[C@H](CO)CC(C)C
#74 COC(=O)c1ccccc1NC(=O)CSc1nnc(COc2cccc(OC)c2)n1C
#75 CC(=O)c1ccc(NC(=O)Cn2cnc(S(=O)(=O)N3CCc4ccccc43)c2)cc1
#76 CCOC(=O)Cn1c2ccccc2c2nc3ccccc3nc21

Compound	73	74	75	76
Rango complex inh	-1.9%	2.8%	4.8%	?
miR-21 FLuc	nt	-2%	-1%	-5%
GLA inh pH 4.5	nt	1	nt	-1
Rango dissoc inh	21%	1%	-6%	2%
